GLA inh pH 4.5: qHTS Assay for Inhibitors of Human alpha-Galactosidase at pH 4.5 | 230,000 tested, under 10 active | purified enzyme, 4-MU-alpha-Gal fluorescence, pH 4.5 | Alpha-galactosidase A (Homo sapiens), P06280 | activity change, negative = inhibition, % at 105 µM; inconclusive = small, poorly fitted or top-dose-only inhibition, or a rising curve; inactive = flat fitted curve, though single readings scatter; no compound was filed as active;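 note: 0% = full activity with enzyme and -100% = basal without enzyme; dose as in the result columns while the protocol names 77 µM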
Target sequence (P06280 whole entry, looked up): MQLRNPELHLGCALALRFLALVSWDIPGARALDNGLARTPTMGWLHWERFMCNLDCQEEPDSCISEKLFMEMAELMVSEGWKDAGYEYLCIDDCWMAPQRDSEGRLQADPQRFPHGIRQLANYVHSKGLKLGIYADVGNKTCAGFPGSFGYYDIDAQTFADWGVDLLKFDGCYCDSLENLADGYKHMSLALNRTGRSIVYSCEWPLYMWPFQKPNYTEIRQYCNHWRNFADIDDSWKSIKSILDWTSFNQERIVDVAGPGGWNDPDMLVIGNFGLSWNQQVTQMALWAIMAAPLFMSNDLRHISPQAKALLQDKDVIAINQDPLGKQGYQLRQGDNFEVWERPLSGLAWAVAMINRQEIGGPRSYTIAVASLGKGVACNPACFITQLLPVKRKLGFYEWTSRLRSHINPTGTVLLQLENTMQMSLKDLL
miR-21 reporter: qHTS Assay for Modulators of miRNAs and/orActivators of miR-21 | Potency, µM (highest dose often 38.3 µM), for inactives: at the highest dose reporter change, positive = more light | 340,000 tested, under 10 active | HeLa miR-21 FLuc reporter, luciferase, 48 h | AID 2288, 2010; active = well fitted rising curve with a large enough effect; inconclusive = small, poorly fitted or top-dose-only effect; inactive = no such curve, though single readings can be large or run the other way;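 note: % of control where 0% means no effect; miR-21 action dims this reporter so a rising signal means less miR-21 action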
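HeLa miR-21-FLuc reporter line, endogenous miR-21; 2000 cells/well in DMEM/10% FBS; compound titration up to ~40uM final, 48 h, 37 degree Celsius; luciferase detection reagent, 15 min lysis, CCD luminescence.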
Rango-impB inh: qHTS Assay for Inhibitors of Rango (Ran-regulated importin-beta cargo) - Importin beta complex formation; Importin subunit beta-1 (Homo sapiens), Q14974; Rango CFP/YFP FRET sensor + importin beta, 45 min; Potency, µM (titrated, usually from 92.2 µM), without a hit: top-dose inhibition of complex formation; 340,000 compounds, 0.031% hits; active = rising FRET ratio curve, often small or poorly fitted; inconclusive = mostly compound fluorescence or quenching in the first reads; inactive = flat curves in all reads;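 note: potency is the fitted concentration of half-maximal effect; 0% = DMSO wells and 100% = buffer wells lacking importin beta; nearly all actives have a fitted effect of over 15% in size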
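FRET biosensor Rango (snurportin 1 IBB between N-terminal EYFP and C-terminal Cerulean), 50 nM in PBS/1 mM DTT/0.02% Tween-20/0.1% BSA, preincubated 5 min RT with compound; 0.125 microM importin beta added, 45 min RT, CFP/YFP FRET ratio read.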
Rango dissoc inh: qHTS Assay for Inhibitors of RanGTP induced Rango (Ran-regulated importin-beta cargo) - Importin beta complex dissociation; Snurportin-1 (Homo sapiens) + GTP-binding nuclear protein Ran (Homo sapiens) + Importin …; Biochemical FRET Rango-importin beta, RanGTP-induced dissociation; Potency, µM (series often up to 46.1 µM), for inactives: top-dose activity change, negative = inhibition; 340,000 compounds, 0.071% hits; AID 540253, 2011; active means falling FRET ratio curve, often poorly fitted, with flat reads before Ran was added; inconclusive means other falling curves, or compound fluorescence or quenching; inactive means flat or rising ratio curve;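 note: potency is the fitted concentration of half-maximal effect; % of control where 0% means no effect; nearly all actives have a fitted effect of over 45% in size; -100% = wells without RanGTP and RCC1; the record marks most hits as doubtful in a second field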
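Rango FRET biosensor (snurportin-1 IBB flanked by N-terminal EYFP and C-terminal CFP10) at 0.1 uM, with 0.25 uM importin beta in PBS, 1mM DTT, 0.02% Tween-20, 0.1% BSA. 0.6 uM Ran, 2mM GTP and 0.2 uM RCC1 were then added for 45 min at room temperature. Inhibition read as loss of FRET rise.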
* hit, by the source's call; ? = inconclusive; . = not tested or not shown. Some of the compounds tested (hit frequency here may not be typical).

[1] CCc1nnc(NC(=O)C2CC(=O)N(C3CCCCC3)C2)s1 (stereo not given)
[2] O=C(CN(C(=O)c1csnn1)c1ccc(Cl)cc1)NC1CCCC1
[3] Cn1ccc(NC(=O)Nc2ccc(Cl)cc2Cl)n1
[4] O=C(CN1C(=O)NC(CCc2ccccc2)C1=O)N1CCCCCC1 (stereo not given)
[5] O=C(O)c1ccc(-c2nnc(-c3ccc([N+](=O)[O-])cc3)o2)cc1
[6] O=C1NCCN(Cc2ccc(F)cc2)C1CC(=O)N1CC=C(c2ccccc2)CC1 (stereo not given)
[7] COc1ccc2c(c1)c(C(=O)O)c(C)n2CCc1ccc(OC)c(OC)c1
[8] CC(=O)N1N=C(c2ccc(C)cc2)OC1c1ccc(Br)cc1 (stereo not given)

compound no.,1,2,3,4,5,6,7,8
GLA inh pH 4.5,.,.,-2,.,.,1,.,9
miR-21 reporter,1%,-10%,-61%,.,0%,0%,1%,-6%
Rango-impB inh,-3.9%,-1.9%,-0.5%,-2.0%,-2.5%,?,-0.8%,0.6%
Rango dissoc inh,-1%,1%,-14%,1%,2%,-25%,0%,11%

[9] C#CCOCCOCCOCCNc1nc(N2CCN(C(=O)[C@H](CC(N)=O)n3cc(C(N)[C@@H](C)CC)nn3)CC2)nc(N2CCN(C(=O)[C@H](CCCCN)n3cc([C@@H](N)CC(N)=O)nn3)CC2)n1 (stereo not given in full)
[10] COc1ccc(Br)cc1C1NC(=O)c2c(sc3c2CCN(C)C3)N1 (stereo not given)
[11] O=C(Cc1c[nH]c2ccccc12)Nc1cccc(S(=O)(=O)N2CCCCC2)c1
[12] Cc1ccc(C)c(S(=O)(=O)N2CCCC2CNC(=O)C(=O)NCc2ccccc2)c1 (stereo not given)
[13] CSCCC(C(=O)N(C)CC(=O)Nc1cccc(F)c1)N1C(=O)c2ccccc2C1=O (stereo not given)
[14] O=C(Cc1cc2ccccc2o1)NCc1ccc(F)cc1
[15] O=C(/C=C/c1ccc(Br)cc1)N1CCN(c2cccc(C(F)(F)F)c2)CC1
[16] O=S(=O)(c1ccc(Cl)cc1)N1CCSC1c1ccco1 (stereo not given)

compound no.,9,10,11,12,13,14,15,16
GLA inh pH 4.5,.,-7,-1,.,.,.,-4,-4
miR-21 reporter,.,-1%,-7%,.,.,9%,3%,0%
Rango-impB inh,3.9%,?,.,-2.2%,-5.6%,0.3%,-1.5%,-6.3%
Rango dissoc inh,2%,?,.,10%,?,-2%,1%,-3%

[17] CCCCn1c(N)c(N(C)C(=O)c2cccc(-n3cnnn3)c2)c(=O)[nH]c1=O
[18] COc1cc(OCC(=O)NC(C)C)cc2c1C(=O)O[C@@H](C)CCCC(=O)CCCCC2
[19] CCOC(=O)c1cccc(NC(=O)C2CCCN2S(=O)(=O)c2cccc3cccnc23)c1 (stereo not given)
[20] COc1ccc(OC)c(NC(=O)c2ccc(OC3CSC3)cc2)c1
[21] Cc1onc(-c2ccccc2)c1C(=O)Nc1ccc(S(=O)(=O)NC(C)(C)C)cc1
[22] O=c1c2cn(Cc3ccccc3)c3ccccc3c-2nn1Cc1ccc(F)cc1Cl
[23] O=C(Nc1ccccc1)c1ccc(Cn2cc(C(F)(F)F)ccc2=O)cc1
[24] Cc1ccc(NC2=NCC(=O)N2Cc2ccccc2)c(C)c1

compound no.,17,18,19,20,21,22,23,24
GLA inh pH 4.5,.,.,-2,-4,5,.,4,0
miR-21 reporter,.,6%,-18%,-23%,2%,-2%,-5%,-8%
Rango-impB inh,1.8%,4.4%,-1.9%,2.5%,-3.4%,-2.4%,0.8%,-2.2%
Rango dissoc inh,21%,0%,19%,-4%,6%,-4%,-6%,-10%

Reformatted bar-delimited: 3 of the compounds above.
no. | compound | GLA inh pH 4.5 | miR-21 reporter | Rango-impB inh | Rango dissoc inh
18 | COc1cc(OCC(=O)NC(C)C)cc2c1C(=O)O[C@@H](C)CCCC(=O)CCCCC2 | . | 6% | 4.4% | 0%
23 | O=C(Nc1ccccc1)c1ccc(Cn2cc(C(F)(F)F)ccc2=O)cc1 | 4 | -5% | 0.8% | -6%
21 | Cc1onc(-c2ccccc2)c1C(=O)Nc1ccc(S(=O)(=O)NC(C)(C)C)cc1 | 5 | 2% | -3.4% | 6%

Additional records.
[25] COc1cc(C2N(Cc3ccccc3)CCN2Cc2ccccc2)ccc1OC(C)=O
[26] CC(C)(C)c1ccc(S(=O)(=O)NCC(=O)Nc2sc3c(c2C(N)=O)CCCC3)cc1
[27] O=C(COC(=O)CN1C(=O)c2ccccc2C1=O)Nc1ncc(Cl)cc1Cl
[28] COc1ccc(Nc2ncnc3scc(-c4ccc(OC)cc4)c23)cc1
[29] COc1ccccc1N1CCN(C2CCCN(C(=O)CCc3cnccn3)C2)CC1 (stereo not given)
[30] COC(=O)NNC(=O)c1ccc(C)cc1
[31] CC(C)(C)NC(=O)C(c1ccco1)N(C(=O)c1csnn1)c1ccccc1 (stereo not given)
[32] COc1cc(C2Nc3ccc4ncccc4c3C3=C2C(=O)CC(C)(C)C3)cc(OC)c1O (stereo not given)

compound no.,25,26,27,28,29,30,31,32
GLA inh pH 4.5,.,-1,3,8,.,-6,-4,4
miR-21 reporter,-1%,-2%,6%,19%,-4%,-2%,-2%,-38%
Rango-impB inh,-2.9%,-1.1%,-3.2%,-0.2%,-0.1%,-1.5%,-2.3%,-4.4%
Rango dissoc inh,-5%,15%,20%,?,7%,1%,28%,10%

An excerpt from above, limited to Rango-impB inh, Rango dissoc inh and miR-21 reporter.
item | Compound | Rango-impB inh | Rango dissoc inh | miR-21 reporter
32 | COc1cc(C2Nc3ccc4ncccc4c3C3=C2C(=O)CC(C)(C)C3)cc(OC)c1O (stereo not given) | -4.4% | 10% | -38%
27 | O=C(COC(=O)CN1C(=O)c2ccccc2C1=O)Nc1ncc(Cl)cc1Cl | -3.2% | 20% | 6%
29 | COc1ccccc1N1CCN(C2CCCN(C(=O)CCc3cnccn3)C2)CC1 (stereo not given) | -0.1% | 7% | -4%
25 | COc1cc(C2N(Cc3ccccc3)CCN2Cc2ccccc2)ccc1OC(C)=O | -2.9% | -5% | -1%

Further entries follow:
[33] CSc1nc(N)c2c(n1)OC(N)=C(C#N)C2c1cccnc1 (stereo not given)
[34] C=CCN1C(=O)c2ccc(C(=O)OCC(=O)N(CC)C3CCS(=O)(=O)C3)cc2C1=O (stereo not given)
[35] COc1ccccc1NC(=O)C1CCN(S(=O)(=O)c2cccs2)CC1
[36] COc1ccc(C=Nc2cccc3ncccc23)cc1
[37] CC(C)OC(=O)C(=O)NNc1ccccc1
[38] Cn1cccc1CC(=O)NNC(=S)NC(=O)c1ccc(F)cc1
[39] Cc1ccccc1NC(=O)C1CCN(C(=O)NC2CCCCC2)CC1
[40] C#CCOCCOCCOCCNc1nc(N2CCN(C(=O)[C@H]([C@@H](C)CC)n3cc([C@@H](N)Cc4ccc(O)cc4)nn3)CC2)nc(N2CCN(C(=O)[C@H](CCCCN)n3cc([C@@H](N)CC(C)C)nn3)CC2)n1

compound no.,33,34,35,36,37,38,39,40
GLA inh pH 4.5,0,.,.,8,-5,0,.,-2
miR-21 reporter,5%,.,.,-6%,5%,-7%,1%,-3%
Rango-impB inh,-1.5%,6.8%,0.8%,3.4%,3.8%,-4.3%,-0.7%,.
Rango dissoc inh,?,-4%,13%,20%,0%,-5%,-16%,.

[41] CCC(=O)N1CCN(c2ccnc3cc(Cl)ccc23)CC1
[42] O=C(CSc1nnc(Cc2ccccc2)o1)NCCc1ccccc1
[43] Cc1nc2cc(C(F)(F)F)ccc2n1CCNc1nc(-c2cc(Cl)c(N)c(Cl)c2)cs1
[44] Cc1ccc(S(=O)(=O)NCCC(=O)Nc2ccc(S(=O)(=O)NC(C)C)cc2)cc1
[45] Cc1ccc2[nH]c3c(c2c1)CN(C(=O)CN1CCN(c2ccccn2)CC1)CC3
[46] CCOc1ccc(NC(=O)C2CCCN(S(=O)(=O)c3ccc4c(c3)CC(C)N4C(C)=O)C2)cc1 (stereo not given)
[47] COc1ccc(COC(=O)c2sc3nc4n(c(=O)c3c2C)CCC4)cc1
[48] O=C(Nc1ccccc1)NC1CCCc2ccccc21 (stereo not given)

compound no.,41,42,43,44,45,46,47,48
GLA inh pH 4.5,-17,-16,.,.,-3,.,.,3
miR-21 reporter,17%,-6%,5%,3%,2%,1%,.,0%
Rango-impB inh,-0.4%,0.4%,-1.4%,-1.8%,?,-0.2%,-2.2%,6.4%
Rango dissoc inh,-11%,16%,6%,-12%,?,-9%,12%,21%

[49] Cc1nnc(SCc2nnc(-c3ccccc3Br)o2)n1-c1ccccc1
[50] CC1CCC(NC(=O)C2CCC(CNS(=O)(=O)c3cccc4nsnc34)CC2)CC1 (stereo not given)
[51] Cn1nc(C(F)(F)F)c(C(=O)Nc2ccc(F)cc2F)c1Sc1ccc(C(F)(F)F)cc1
[52] CCOc1ccccc1CNc1nc2ccccc2n1C
[53] Cc1c(O)ccc(C(=O)CN2CCN(c3ccccc3)CC2)c1O
[54] CN(CC(=O)Nc1ccc(N2CCOCC2)cc1)Cc1c(O)ccc2ccccc12
[55] COc1ccc(C(=O)N=c2sc3ccccc3n2C)cc1
[56] COc1ccc(-c2noc(CCC(=O)N(C)c3cccc(C)c3)n2)cc1

compound no.,49,50,51,52,53,54,55,56
GLA inh pH 4.5,5,6,-23,.,.,-3,-2,-10
miR-21 reporter,-17%,1%,-2%,-7%,0%,-2%,-52%,1%
Rango-impB inh,2.2%,0.2%,-4.2%,8.8%,2.7%,1.8%,2.2%,2.8%
Rango dissoc inh,-8%,14%,0%,1%,2%,?,2%,3%

[57] CN1CCN(CCNC(=O)Nc2ccc([N+](=O)[O-])cc2)CC1
[58] Cc1cccc(OCCNC(=O)c2ncn[nH]2)c1
[59] Cc1ccc(NC(=S)NCC2CCN(C(C)c3ccccc3)C2)cc1C (stereo not given)
[60] COc1ccc(-n2c(C)nnc2SCC(=O)N2CCOCC2)cc1
[61] Cc1ccccc1SCCNC(=O)CCc1ccccc1
[62] CCC(NC(=O)C1CCC1)c1ccc(C)cc1 (stereo not given)
[63] O=C(NNC1=C(C(=O)C(F)(F)F)CCC1)c1ccncc1
[64] NC(=O)C1C2CCC(C2)C1C(N)=O (stereo not given)

compound no.,57,58,59,60,61,62,63,64
GLA inh pH 4.5,-3,-8,-8,.,-12,-3,10,.
miR-21 reporter,5%,-12%,6%,-6%,-35%,0%,-10%,.
Rango-impB inh,-0.4%,?,5.0%,-0.3%,.,-0.5%,-0.3%,-0.6%
Rango dissoc inh,-4%,10%,2%,6%,.,0%,-6%,-2%

[65] COc1ccc(C)cc1NC(=O)c1[nH]c(C)c(C(C)=O)c1C
[66] COCCNC(=O)Cn1c(=O)n(CCCC(=O)NCc2ccc3c(c2)OCO3)c(=O)c2sccc21
[67] Cc1cc(C(=O)OCc2nc3ccccc3s2)c(C)o1
[68] Cc1nn(Cc2ccccc2Cl)c2sc(C(=O)Nc3ccccc3N3CCOCC3)cc12
[69] Oc1ccc(Cl)cc1C1=NNC(c2cc(Br)cc3c2OCOC3)C1 (stereo not given)
[70] CC(C)CNC(=O)c1ccc2c(c1)C(=O)N(Cc1ccco1)C2=O
[71] COCCn1c(SCC(=O)NC(C)c2ccc(F)cc2)nc2ccccc21 (stereo not given)

compound no.,65,66,67,68,69,70,71
GLA inh pH 4.5,5,.,1,4,-5,.,.
miR-21 reporter,-8%,0%,-52%,?,-4%,0%,9%
Rango-impB inh,-1.8%,-1.9%,5.3%,-1.2%,0.6%,0.4%,4.5%
Rango dissoc inh,0%,3%,-5%,-7%,-5%,8%,3%

Compound activity as filed in PubChem.
